# GIV-Gai inh = inhibitors of GIV GBA-motif binding to rat Galpha-i3; P08753; Galpha-i3/FITC-GIV peptide fluorescence polarization, 90 min; active compounds read low; scaled: aluminum fluoride 0%, vehicle 100%; percent of control (FP), % (no concentration beside the values); 210,000 compounds, 0.42% hits; AID 1224905;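 active = replicate mean at 85% of control or lower, very high polarization wells dropped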;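 note: wells of about 15 µL received 100 nL stock; the first replicate is given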
# Target sequence (P08753 whole entry, looked up): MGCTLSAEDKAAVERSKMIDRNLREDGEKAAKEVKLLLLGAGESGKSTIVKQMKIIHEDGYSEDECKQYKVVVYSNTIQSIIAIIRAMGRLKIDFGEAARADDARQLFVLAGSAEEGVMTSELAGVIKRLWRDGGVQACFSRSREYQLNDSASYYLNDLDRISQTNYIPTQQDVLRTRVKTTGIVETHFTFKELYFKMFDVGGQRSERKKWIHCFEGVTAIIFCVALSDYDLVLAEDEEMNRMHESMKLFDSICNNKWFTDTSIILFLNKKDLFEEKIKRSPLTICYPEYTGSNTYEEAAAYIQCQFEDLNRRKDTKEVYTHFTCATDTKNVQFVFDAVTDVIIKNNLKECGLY
# Sa growth 42C = blocks Staphylococcus aureus growth; S. aureus RN4220 growth, OD600, 20 h, 42 °C; active compounds read low; relative growth, % (concentration not given with the values); 170,000 compounds, 0.53% hits;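 active = growth at 42 °C up to 50% and 20 or more points under that at 30 °C, or under 10% at both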;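 note: 300 nL library stock went into each well; scaled to the means of positive and negative controls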
# HCMV UL50-53 inh = inhibitors of HCMV UL50-UL53 nuclear egress complex interaction; HTRF UL50-UL53 interaction, normalized percent inhibition; inhibition, % (test concentration not listed); 190,000 compounds, 0.15% hits;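 active = both replicates at 50% or more, plus weaker picks with an unusually low signal ratio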;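 note: stock transfer was 100 nL into about 20 µL; 0% = negative control wells and 100% = wells with untagged competitor protein; inactives centre near -12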
# Sa growth 42C second temp = recorded beside Sa growth 42C, whose call it bears; relative growth, %; measured here: growth at 30 °C;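 optical density after 20 h as mean of two plates; 100% = untreated growth and lower means inhibition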
# * hit, by the source's call; . = not tested or not shown; & = joins results of further samples.
Molecule	GIV-Gai inh	Sa growth 42C	Sa growth 42C second temp	HCMV UL50-53 inh
Cc1ccc(NC(=O)Cn2cnc3sc(C(=O)O)c(C)c3c2=O)cc1Cl	107	96	88	-31
N/C(CN1CCSCC1)=N\OC(=O)c1ccccc1F	106	96	87	-26
O=P1(N2CCN(c3ccc(F)c(Cl)c3)CC2)COc2ccccc2OC1	101	94	66	-12
CCOc1ccc(N(CC(=O)Nc2c(C)n(C)n(-c3ccccc3)c2=O)S(=O)(=O)c2ccc(Cl)cc2)cc1	107	.	.	16
COc1ccccc1C(=O)Nc1ccc(-c2cn3ccccc3n2)cc1	.	97	76	9
COc1ccc(-c2noc(-c3ccccc3C(=O)N3CCCCC3)n2)cc1OC	102	102	97	6
CCOCCCn1c(SCC(=O)Nc2ccccc2Cl)nc2c(oc3ccccc32)c1=O	102	97	88	-11
Cc1cccc(-c2ccc(Nc3cccc(C(=O)NCC(C)C)c3)nn2)c1	105	.	.	-16
CC(C)C(=O)n1c2ccc(F)cc2c2nc3ccccc3nc21	105	106	84	2
CCc1nnc2c3cnn(-c4ccccc4)c3nc(C)n12	.	85	93	13
Clc1ccc(-c2cc3ncc4c(n3n2)-c2ccccc2OC4)cc1	101&92	106	90	-8&6
N#C[C@@H]1O[C@H](COC(=O)c2ccccc2)[C@@H](OC(=O)c2ccccc2)[C@H]1OC(=O)c1ccccc1	103	100	84	-26
COC(=O)c1c(C)nn(-c2ccc(OC(F)(F)F)cc2)c1-c1snnc1C	98	100	88	-37
Cc1ccc(-c2cc(Cc3cccnc3)c(=O)[nH]n2)cc1	106	105	94	-21
Cc1ccc(N(Cc2nc3nc(C)cc(=O)n3[nH]2)S(C)(=O)=O)cc1	107	.	.	-31
C/C(=N\Nc1ccccc1)C1Cc2ccccc2C(=O)O1 (stereo not drawn)	.	71	59	-10
CCOc1ccc(-c2cc3c(=O)n(CC(=O)NCc4ccc(F)cc4)ccn3n2)cc1	100	83	93	.
O=C(Nc1nc2ccccc2c(=O)s1)c1ccco1	104	111	79	-24
CCCN(C(=O)COc1cc(=O)n(CC)c2ccccc12)c1ccc(C(C)C)cc1	102	18	32	2
Nc1ncnc2c1ncn2C1C=CC(CO)O1 (stereo not drawn)	.	99	79	-1
CCCOc1c(-c2ccc3ccccc3n2)cnc2ccccc12	.	96	66	-30
Cc1cc(C(=O)OCc2ccccc2)c(C)o1	.	104	90	-24
O=C(NCc1ccccc1)c1ccc(CN2CCC(Cc3ccccc3)CC2)cc1	97	98	94	.
CCc1cccc(NC(=O)CCCN2C(=O)COc3ccc(C)cc32)c1	108	94	84	.
Cc1cc(N2CCC(NC(=O)NC3CCCCC3)CC2)n2ncnc2n1	100	.	.	-14
Cn1cc(NC(=O)NCCN2CCCC2)c2ccccc2c1=O	99	93	86	-19
O=C(Cn1nnc2ccccc21)OCC(=O)c1ccc(Cl)cc1	103	106	71	-11
Cc1ccc(C(=O)OC2=CC(=O)c3ccccc3C2=O)cc1	84*	88	57	36
CCC1Nc2ccccc2NC1=O (stereo not drawn)	.	103	84	-12
O=S(=O)(CCn1cccc1)CCn1cccc1	104	115	98	3

# A stretch of the results above, for reference:
Molecule	GIV-Gai inh	Sa growth 42C	Sa growth 42C second temp	HCMV UL50-53 inh
Cc1ccc(NC(=O)Cn2cnc3sc(C(=O)O)c(C)c3c2=O)cc1Cl	107	96	88	-31
N/C(CN1CCSCC1)=N\OC(=O)c1ccccc1F	106	96	87	-26
O=P1(N2CCN(c3ccc(F)c(Cl)c3)CC2)COc2ccccc2OC1	101	94	66	-12
CCOc1ccc(N(CC(=O)Nc2c(C)n(C)n(-c3ccccc3)c2=O)S(=O)(=O)c2ccc(Cl)cc2)cc1	107	.	.	16
COc1ccccc1C(=O)Nc1ccc(-c2cn3ccccc3n2)cc1	.	97	76	9
COc1ccc(-c2noc(-c3ccccc3C(=O)N3CCCCC3)n2)cc1OC	102	102	97	6
CCOCCCn1c(SCC(=O)Nc2ccccc2Cl)nc2c(oc3ccccc32)c1=O	102	97	88	-11
Cc1cccc(-c2ccc(Nc3cccc(C(=O)NCC(C)C)c3)nn2)c1	105	.	.	-16
CC(C)C(=O)n1c2ccc(F)cc2c2nc3ccccc3nc21	105	106	84	2
CCc1nnc2c3cnn(-c4ccccc4)c3nc(C)n12	.	85	93	13
Clc1ccc(-c2cc3ncc4c(n3n2)-c2ccccc2OC4)cc1	101&92	106	90	-8&6
N#C[C@@H]1O[C@H](COC(=O)c2ccccc2)[C@@H](OC(=O)c2ccccc2)[C@H]1OC(=O)c1ccccc1	103	100	84	-26
COC(=O)c1c(C)nn(-c2ccc(OC(F)(F)F)cc2)c1-c1snnc1C	98	100	88	-37
Cc1ccc(-c2cc(Cc3cccnc3)c(=O)[nH]n2)cc1	106	105	94	-21
Cc1ccc(N(Cc2nc3nc(C)cc(=O)n3[nH]2)S(C)(=O)=O)cc1	107	.	.	-31
C/C(=N\Nc1ccccc1)C1Cc2ccccc2C(=O)O1 (stereo not drawn)	.	71	59	-10
CCOc1ccc(-c2cc3c(=O)n(CC(=O)NCc4ccc(F)cc4)ccn3n2)cc1	100	83	93	.
O=C(Nc1nc2ccccc2c(=O)s1)c1ccco1	104	111	79	-24

# The list goes on.
Molecule	GIV-Gai inh	Sa growth 42C	Sa growth 42C second temp	HCMV UL50-53 inh
CC(NC(=O)c1cccc(S(=O)(=O)N(C)C)c1)C1CC2CCC1C2 (stereo not drawn)	.	94	77	-38
CS(=O)(=NC(=O)Nc1ccccc1)c1ccccc1 (stereo not drawn)	103	119	88	-9
Nc1c(C(=O)NCc2ccc(Cl)cc2)sc2nc(-c3ccc(F)cc3)ccc12	105	111	99	12
O=C(CSc1nnc(-c2ccc(Cl)cc2)n1Cc1ccccc1)NC(=O)NCc1ccco1	.	89	88	-5
COc1cccc(-c2n[nH]c3c2C(c2cccc(O)c2)N(C)C3=O)c1 (stereo not drawn)	102	102	76	-26
CCc1nnc(NC(=O)CSc2nc3c([nH]c4ccccc43)c(=O)n2-c2ccc(F)cc2)s1	101	121	92	.
COC(=O)N/N=C/c1cn(CCOc2ccc(OC)cc2)c2ccccc12	102	98	85	-23
COc1ccc(CCNC(=O)C(Cc2ccccc2)n2cccc2)cc1OC (stereo not drawn)	104	95	84	.
CCCc1cc(=O)[nH]c(SCC(=O)N(C)c2ccccc2)n1	.	90	91	-9
CN(C)CCOC(=O)c1cnn2c(C(F)(F)F)cc(-c3ccccc3)nc12	107	.	.	-98
CN1C(=O)/C(=N\N2C(=O)CSC2=S)c2ccccc21	103	89	41	-38
CC1CC(C)CN(C(=O)C2CCN(C(=O)c3cnn(-c4ccccc4)c3-n3cccc3)CC2)C1 (stereo not drawn)	104	.	.	-26
Cc1ccc2oc(=O)c3cnn(CC(=O)n4c(C)cc5ccccc54)c3c2c1	101	103	97	.
Cc1c(N2C(=O)CSC2c2ccccc2Cl)c(=O)n(-c2ccccc2)n1C (stereo not drawn)	105	.	.	11
CCc1c(C)nc2ncnn2c1NCc1ccccc1OC	99	.	.	-19
CC1CCN(C(=O)c2ccc3nc(SCc4ccc(F)cc4)n(C)c3c2)CC1	101	114	84	.
COCCn1nnnc1C(c1ccc2ncccc2c1)N1CCc2ccccc21 (stereo not drawn)	100	100	83	-11
COC(=O)c1sc(N2CCCC2)c(C#N)c1N	101	97	80	-8
Cc1cc(C)c(NC(=O)c2ccc(-n3nc(OCc4ccc(Cl)cc4)ccc3=O)cc2)c(C)c1	105	.	.	-28
O=C(NCc1ccco1)c1ccc(-n2nncc2-c2ccccc2)cc1	.	96	102	5
CC(Sc1nnc(-c2ccncc2)n1N)C(=O)c1ccc(F)c(F)c1 (stereo not drawn)	.	76	77	-33
CCN1C(SCC(=O)N(C)c2ccccc2)=NS(=O)(=O)c2ccccc21	99	.	.	-29
N#Cc1nc(N2CCCC2)nc(N2CCCC2)n1	104	80	75	0
CC(=O)Nc1ccc(-c2nnc3n(Cc4ccc(C)cc4)c(=O)c4ccccc4n23)cc1	104&100	109	92	4&1
N#Cc1ccc(NC(=O)CCC(=O)O)cc1	102	110	86	-19
O=C(Cc1ccccc1)Nc1cccc(-c2ccc(N3CCCC3)nn2)c1	102	109	81	-105
COC(=O)c1cccc(NC(=O)C2=NNC(=O)CC2)c1	104	96	84	-30
O=C(CN1C(=O)c2ccccc2C1=O)Nc1ncc(S(=O)(=O)c2ccc([N+](=O)[O-])cc2)s1	109	.	.	5
Cc1ccc(C(=O)N(Cc2ccccc2)C(C)C)cc1	104	110	89	-14
CCOC(=O)CNC(=O)c1cc2c(=O)n3cccc(C)c3nc2s1	109	91	113	-28

# The listing continues.
Molecule	GIV-Gai inh	Sa growth 42C	Sa growth 42C second temp	HCMV UL50-53 inh
CCC(=O)Nc1ccc(CC)cc1-c1nc2ccccc2n(CC(=O)c2ccc(OC)cc2)c1=O	99	101	89	-14
Cc1nnc(NC(=O)c2sc(COc3ccc(Cl)c(C)c3)nc2C)s1	106	.	.	-22
CCc1ccc(CN2CCC(O)CC2)cc1	100	111	95	-7
COC(=O)C1=C(C)NC(=S)NC1/C=C/c1ccccc1 (stereo not drawn)	101	109	104	-12
Fc1cccc(CSc2ncnc3nc[nH]c23)c1	99	.	.	-19&-14
CC(C)(C)C(=O)CSC1=CC(=O)CC(c2ccccc2)S1 (stereo not drawn)	106	94	88	-3
Cc1cccc(NC(c2ccccn2)c2c(NC(=O)c3ccccc3)sc(C)c2C)n1 (stereo not drawn)	107	.	.	-10
CN1CCSc2ccc(C(=O)NCc3ccccc3F)cc21	105	109	98	22
COc1cccc(C(=O)N2c3nc(-c4ccco4)nn3C3(CCCCC3)[C@@H]3CCCC[C@@H]32)c1	106	104	89	18
Cc1onc(-c2ccccc2Cl)c1C(=O)NCCS(=O)(=O)N1CCN(c2ccccc2)CC1	108	.	.	-3
Cc1ccc(CNC(=O)CCc2cn(Cc3ccc(C)cc3)c3ccccc23)cc1	109	102	90	.
COC(=O)c1ccc(C(=O)NN)cc1	105	90	84	-8
O=S(=O)(CCc1nc2ccccc2o1)c1ccc2ccccc2c1	103	91	89	-23
COc1ccc(C2N(C(=O)c3ccccc3)CCCN2S(=O)(=O)c2ccc(C)cc2)cc1 (stereo not drawn)	98	91	93	.
CC(=O)c1cccc(-n2c(=O)c3c4c(sc3n(Cc3ccccc3Cl)c2=O)CN(C(C)=O)CC4)c1	100	105	88	-5
O=S(=O)(NCCN1CCOCC1)c1ccc(Cc2ccc(S(=O)(=O)NCCN3CCOCC3)cc2)cc1	105	94	90	-8
CCCCCn1c(=O)[nH]c2cc(C(=O)NCCNC(C)=O)ccc2c1=O	102	.	.	-28
O=C(O)/C=C/C(=O)Nc1ccc2c(c1)OCCO2	107	99	114	2
CCOC(=O)Cn1c(=O)c(C(N)=S)cn(C(C)C)c1=O	105	128	91	-6
COc1cccc(CNC(=O)c2ccc3c(c2)N(C)C(=O)C2CCCCN32)c1 (stereo not drawn)	106	94	86	.
CCOC(=O)N1CCC(NC(=O)CCC(=O)N2CCOc3ccccc32)CC1	96	85	85	-22
CCn1c(C(=O)O)cc2oc(C)cc21	103	91	89	.
CCOC(=O)c1c(NC(=O)c2nc3ncccn3n2)sc2c1CCC(CC)C2 (stereo not drawn)	99	115	87	.
CN(C)/C=N/C1N=C(C2CC2)N(C)C(=O)N1 (stereo not drawn)	101	79	94	2
O=C(Nc1ccccc1)N(Cc1c[nH]c2ccccc12)C1CCCCCC1	107	99	94	-14
Cc1ccc(NC(=O)/C(CN(C)C2CCCCC2)=N\O)cc1	103	93	87	-15
COc1ccccc1N1CCN(C(CNC(=O)C(=O)NCCN(C)C)c2cccnc2)CC1 (stereo not drawn)	110	125	91	-25
COc1cc(NC(=O)CC2OCCN(Cc3ccccc3)C2=O)cc(OC)c1 (stereo not drawn)	101	86	78	-6
COc1cccc(-n2c(SCC(=O)c3ccccc3)nc3c([nH]c4ccccc43)c2=O)c1	111	124	99	.
CCOCCCNC(=O)c1cc2c(=O)[nH]c3ccccc3c2n1C	102	105	100	17

# New compounds follow.
Molecule	GIV-Gai inh	Sa growth 42C	Sa growth 42C second temp	HCMV UL50-53 inh
CCN(CCS(=O)(=O)c1ccc(Cl)cc1)S(=O)(=O)c1ccc(C)cc1	106	109	97	-16
CCC1CN(C(=O)N2CCC(C(=O)N3CCN(c4ccccc4)CC3)CC2)c2ccccc2O1 (stereo not drawn)	107	110	94	-23
CCCc1nn2c(=O)cc(COC(=O)c3cccs3)nc2s1	109	99	102	.
CCCCN(CC)CCNC(=O)Cn1cc2c(n1)-c1c(oc(C(=O)N3CCCC3)c1C)CC2	109	97	81	.
O=C(Oc1cc(=O)oc2ccccc12)c1ccccc1	103	76	119	-2
CC(C)(CNc1nn2cnnc2c2ccccc12)N1CCOCC1	103	.	.	-27
O=C1COc2ccc(S(=O)(=O)N3CCCC3C(=O)N3CCN(c4ccccc4)CC3)cc2N1 (stereo not drawn)	106	.	.	-18
CCc1ccc(NC(=O)CSc2nc(-c3ccccc3)no2)cc1	102	88	82	.

# Screens as filed in PubChem.
